Bioassay records: PubChem BioAssay, ICCB-Longwood Screening Facility, Harvard Medical School
Polio RdRp inh: poliovirus RNA polymerase inhibition. % elongation, % (compound at 16.7 µg/mL). 0.66% of 150,000 active. poliovirus polymerase elongation, fluorescence polarization; hits give low values. P03300; in the data active = % elongation below about 90%; note: some results filed as inactive read as strong as hits
Target sequence (P03300 1749-2209 limits assumed): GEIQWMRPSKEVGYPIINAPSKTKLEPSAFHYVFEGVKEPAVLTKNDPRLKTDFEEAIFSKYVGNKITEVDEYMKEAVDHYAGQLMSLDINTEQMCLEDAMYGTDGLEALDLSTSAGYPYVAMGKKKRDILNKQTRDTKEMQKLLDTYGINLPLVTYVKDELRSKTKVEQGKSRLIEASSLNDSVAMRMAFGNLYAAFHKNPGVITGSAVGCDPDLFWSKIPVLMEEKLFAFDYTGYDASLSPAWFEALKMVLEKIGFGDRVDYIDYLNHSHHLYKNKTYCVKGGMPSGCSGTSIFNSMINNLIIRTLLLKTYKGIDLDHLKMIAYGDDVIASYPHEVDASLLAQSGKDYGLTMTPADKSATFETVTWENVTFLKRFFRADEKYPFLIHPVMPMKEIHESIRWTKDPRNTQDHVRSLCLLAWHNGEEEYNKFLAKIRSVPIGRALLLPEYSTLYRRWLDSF
Polio RdRp inh intensity: also measured in Polio RdRp inh; calls as there; % elongation; measured here: total intensity read-out; formula for this scale not given here;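 total fluorescence in place of polarization; lower means less elongation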
* hit, by the source's call. An excerpt. The share of hits here may be higher or lower than overall.

Sample of the layout (4 entries):
SMILES	Polio RdRp inh	Polio RdRp inh intensity
Cc1ccc(CNC(=O)CCCn2c(=O)c3ccccc3n(Cc3ccccc3C)c2=O)cc1	109	109
COc1ccc2oc(=O)c(C(=O)NCCc3c(C)[nH]c4ccc(C)cc34)cc2c1	103	106
CCc1ccc(NC(=O)CSc2ccc(-c3sc(-c4ccccc4)nc3C)nn2)cc1	106	104
Cn1c(=O)c2c(-c3ccccc3)n3c(c2n(C)c1=O)C(c1ccccc1[N+](=O)[O-])Nc1ccccc1-3 (stereo not given)	104	112

This part in full, previewed entries included:
SMILES	Polio RdRp inh	Polio RdRp inh intensity
Cc1ccc(CNC(=O)CCCn2c(=O)c3ccccc3n(Cc3ccccc3C)c2=O)cc1	109	109
COc1ccc2oc(=O)c(C(=O)NCCc3c(C)[nH]c4ccc(C)cc34)cc2c1	103	106
CCc1ccc(NC(=O)CSc2ccc(-c3sc(-c4ccccc4)nc3C)nn2)cc1	106	104
Cn1c(=O)c2c(-c3ccccc3)n3c(c2n(C)c1=O)C(c1ccccc1[N+](=O)[O-])Nc1ccccc1-3 (stereo not given)	104	112
Cc1ccc(CN2CCCn3nc(C(=O)NC(C)C)cc3C2=O)cc1	109	107
COc1ccc(NC(=O)c2ccco2)cc1NC(=O)c1ccc(C#N)cc1F	109	108
Cc1ccc(-c2nnc3c4ccccc4c(C)nn23)cc1NC(=O)c1cccc(Br)c1	107	110
CCCS(=O)(=O)N1CCC(N2CCN(Cc3ccc(C)cc3)C(=O)C2=O)CC1	109	105
N#Cc1c(Nc2cccc(F)c2)sc(C(=O)c2ccc(Cl)cc2)c1N	98	102
CCCn1c(=O)n(-c2ccccc2)c(=O)c2sc3ccccc3c21	106	113
CCCCOc1ccc(-c2cc3c(=O)n(CC(=O)Nc4ccc(Cl)cc4Cl)ccn3n2)cc1	105	100
Cc1ccc2[nH]c(=O)c3cc(C(=O)NCCCN4CCC(C)CC4)sc3c2c1	96	98
CCOc1cccc(C(=O)Nc2ccc3oc(-c4cccnc4)nc3c2)c1	108	111
Cc1ccc(NC(=O)CN2C(=O)C(C)(C)c3cc(S(=O)(=O)N4CCCCC4)ccc32)c(Br)c1	114	110
CCOC(=O)c1ccc(NC(=O)CCCc2nc(-c3cc(OC)c(OC)c(OC)c3)no2)cc1	108	106
Cn1c(=O)c2c(-c3ccccc3Br)n(Cc3ccccc3)cc2n(C)c1=O	103	105
Cc1ccc2c(Sc3ccc(Cl)cc3)c(C(=O)N3CCCCC3)[nH]c2c1	132	167
Cc1ccc(CCNC(=O)c2ccc3c(c2)nc2n3CCCCC2)cc1	104	103
Cc1ccc2c(c1)NC(=O)c1cccnc1O2	105	107
Cc1cc(C)c(S(=O)(=O)Nc2ccc(-c3ccc(N4CCCCC4)nn3)cc2)cc1C	113	114
O=C(CCSCc1ccc(Cl)cc1)NCCc1ccccc1	116	121
N=c1c(C(=O)NCC2CCCO2)cc2c(=O)n3ccccc3nc2n1CCCO (stereo not given)	105	112
COc1ccc(OC)c(NC(=O)c2nnn(CC(=O)Nc3ccc(C(C)C)cc3)c2N)c1	100	103
Cc1ccc(-n2nc(CO)c(C(=O)NCCO)n2)cc1	102	107
CCCOc1ccc(C(=O)Nc2ccc3nn(-c4ccc(OC)c(Cl)c4)nc3c2)cc1	107	97
CCc1ccccc1N(C)C(=O)c1cc2c(=O)oc3ccccc3c2s1	106	109
COc1cc(OC)c(NC(=O)N2CCSc3ccccc32)cc1Cl	99	105
Cc1ccc(C)c(NC(=O)CN2C(=O)C3(SCC(=O)N3c3ccc(C)c(C)c3)c3ccccc32)c1 (stereo not given)	114	110
CCCN(CCC)CCCNC(=O)c1cc2c(=O)[nH]c3ccccc3c2n1C	106	105
CCC(=O)NNc1ncnc2c1cnn2-c1ccc(C)c(Cl)c1	99	105
CCOC(=O)c1c(NC(=O)c2cc(=O)c3c(C)cc(C)cc3o2)sc(C)c1C	112	111
CCOc1ccc(C2C(C(=O)Nc3ccc(OC)cc3)=C(C)Nc3nc(CCCO)nn32)cc1 (stereo not given)	104	91
Cc1ccc2[nH]c(=O)c3cc(C(=O)NC4CCC(C)CC4)sc3c2c1 (stereo not given)	105	106
CCOc1ccc(N2CC(NC(=O)C3CCCCC3)CC2=O)cc1 (stereo not given)	110	109
CCOc1cccc(C2CC(=O)Nc3cc4c(cc32)OCCO4)c1 (stereo not given)	104	110
Cc1ccc(-c2csc3ncnc(Nc4ccc(C(=O)O)cc4)c23)cc1	105	107
COc1ccccc1NC(=O)C1CCN(c2ncnc3c2nc2n3CCCCC2)CC1	108	100
O=C(CN1C(=O)CSc2ccc(S(=O)(=O)N3CCCC3)cc21)NCc1ccccc1Cl	113	113
COCCCNC(=O)CSc1nc2cc3c(cc2c(=O)n1CCCCCC(=O)NCCc1ccc(OC)c(OC)c1)OCO3	107	112
CCc1ccc(-n2c(SCc3nc(-c4cc(OC)ccc4OC)no3)nnc2-c2ccccc2)cc1	107	108
Cc1cc2oc(C(=O)Nc3c(C)n(C)n(-c4ccccc4)c3=O)cc(=O)c2cc1C	111	118
CCOC(=O)c1noc2ncnc(Nc3ccc(F)cc3F)c12	104	100
COCCCNc1nc2c(c(=O)n(C)c(=O)n2C)n1Cc1ccccc1	104	97
Cc1ccccc1OCC(O)Cn1c(=N)n(CCN2CCCCC2)c2ccccc21 (stereo not given)	105	108
CCOCCCNC(=O)C(c1ccc(OC)cc1)N(Cc1cccs1)C(=O)c1ccc(NC(C)=O)cc1 (stereo not given)	104	106
Cc1c(C(=O)Nc2cccc(F)c2)oc2c1-c1nn(Cc3c(F)cccc3Cl)cc1CC2	95	96
Cc1ccc(S(=O)(=O)N2CCCC(c3nc4c(nnn4Cc4ccc(OC(F)(F)F)cc4)c(=O)[nH]3)C2)cc1 (stereo not given)	106	109
COc1ccccc1NC(=O)Cn1c(=O)n(Cc2ccc3c(c2)OCO3)c(=O)c2oc3ccccc3c21	108	106
Clc1ccccc1Nc1ncnc2c1nc1n2CCCCC1	112	96
CCOc1ccc(CNC(=O)c2cnc3sc(N4CCC(C)CC4)nn3c2=O)cc1OC	98	104
CCOc1cc(C2c3c(oc4ccccc4c3=O)C(=O)N2Cc2ccccc2Cl)ccc1O (stereo not given)	103	103
O=C(c1cccs1)c1cn(CCOc2ccc(Cl)cc2)c2ccccc12	102	98
Cc1ccc(NC(=O)CSc2nc(=O)n(Cc3ccccn3)c3c2CCC3)cc1F	97	101
CC(C)(C)C(=O)OCc1cc(=O)n2nc(C3CCCCC3)sc2n1	101	112
COc1ccc(N2CCN(C(=O)c3cc4c(=O)n(Cc5cccnc5)ccc4nc3C)CC2)cc1	123	149
COC(=O)C(CCSC)NC(=O)C1CCN(c2ncnc3c2nc2n3CCCCC2)CC1 (stereo not given)	108	113
Cc1ccc(-c2cc(-c3ccc4c(c3)NC(=O)CO4)nc3c2COc2ccccc2-3)cc1	104	106
CCOc1cccc(NC(=O)c2sc3nc(-c4ccc(F)cc4)ccc3c2N)c1	106	126
CCCCN(CC)CCCn1cnc2c([nH]c3ccc(Cl)cc32)c1=O	100	103
O=C(NCCc1ccc(F)cc1)C(=O)NCC(c1ccco1)S(=O)(=O)c1cccs1 (stereo not given)	103	105

New compounds follow
SMILES	Polio RdRp inh	Polio RdRp inh intensity
Cc1cccc(C)c1NC(=O)Cn1c(=O)n(CCC(=O)NCc2ccc3c(c2)OCO3)c(=O)c2sccc21	110	114
CCCOc1cccc(C(=O)N(Cc2sccc2C)C2CCS(=O)(=O)C2)c1 (stereo not given)	121	115
CC1CCCCN1S(=O)(=O)c1ccc2c(c1)oc(=O)n2CC(=O)Nc1ccc(Cl)cc1 (stereo not given)	107	113
CCCCNC(=O)CSc1nc2ccccc2nc1Cc1ccc(Cl)cc1	114	107
Cc1csc2nc(COC(=O)c3ccccc3NC(=O)COc3ccccc3F)cc(=O)n12	113	116
Cc1cc(C)cc(NC(=O)C2CCN(S(=O)(=O)c3ccc4c(c3)oc(=O)n4C)CC2)c1	105	110
O=C1Nc2cc(Cl)ccc2Oc2cc(Oc3ccccc3)ccc21	101	104
O=C(c1ccccc1)c1cn(Cc2ccc(F)cc2)c2ccccc2c1=O	106	113
COc1ccc(NC(=O)c2c(NCc3ccc(C)o3)sc3c2CCCCC3)c(OC)c1	103	101
Cc1ccc(C)c(NC(=O)N(C)CCc2c(C)nn(C)c2C)c1	105	103
COc1cc2[nH]c(=O)n(CCCC(=O)N(C)Cc3ccccc3)c(=O)c2cc1OC	105	113
COc1ccc(-c2noc(-c3ccc(NCC4CCCO4)c([N+](=O)[O-])c3)n2)cc1 (stereo not given)	110	113
CCCCOc1ccc(CNC(=O)c2ccc(-c3nc(CN4CCc5ccccc54)c(C)o3)cc2)cc1	99	107
Cc1c(NC(=O)c2cccs2)cccc1-c1nc2cc(Cl)ccc2o1	107	110
COc1ccccc1OC(C)C(=O)Nc1cccc(-c2nc3ccccc3o2)c1 (stereo not given)	114	151
O=C(CSc1nccn1-c1ccc(Cl)cc1)Nc1cccc2ccccc12	109	108
COc1ccccc1CNC(=O)c1c(O)nc2cc(C)ccn2c1=O	104	100
Cc1sc2ncn(CC(=O)N3CCN(c4ccccc4)CC3)c(=O)c2c1S(=O)(=O)N1CCN(c2ncccn2)CC1	107	109
COC(=O)Cc1c(C)c2cc3c(c(C)c2oc1=O)OCN(CCc1ccccc1F)C3	104	106
O=C(NCc1cccs1)c1ccc(CSc2nc3ccncc3n2Cc2cccc(F)c2)cc1	105	105
Cc1ccc(S(=O)(=O)N(CC(=O)Nc2ccc3c(c2)OCO3)c2ccc(C)c(Cl)c2)cc1	102	103
O=C(CS(=O)(=O)c1cccc2nsnc12)Nc1ccc(F)cc1	107	103
COc1ccccc1C1C(C(N)=O)=C(C)Nc2nc(SCc3ccccc3F)nn21 (stereo not given)	106	106
O=C(COC(=O)c1cc(-c2cccs2)nc2ccccc12)c1ccccc1	109	111
CCc1ccc(CNC(=O)C2Cc3cc(S(=O)(=O)N4CCCCCC4)ccc3N2C(C)=O)cc1 (stereo not given)	105	108
COc1ccc(Nc2oc(-c3ccc(COc4ccccc4C)o3)nc2C#N)cc1	105	108
CCC(=O)N1c2ccc(S(=O)(=O)CCC(=O)N3CCN(c4ccc(F)cc4)CC3)cc2CC1C (stereo not given)	114	117
CCOc1ccc(NC(=O)c2sc3nc4n(c(=O)c3c2C)CCCC4)cc1	111	111
Cc1cc(C)n(-c2nc(C)c(C)c(=O)n2CC(=O)Nc2ccc([N+](=O)[O-])cc2)n1	105	104
Cc1nc2c(-c3ccccc3)c(C)nn2c(C)c1CCC(=O)NC(C)c1ccccc1 (stereo not given)	108	110
COc1cccc(N2CCN(C(=O)c3cnc4c(-c5ccccc5)c(C)nn4c3C)CC2)c1	116	124
CCN(CC)CCCNC(=O)c1ccc(Cn2c(SCc3ccccc3)nc3cccnc32)cc1	104	109
CCOC(=O)c1c(NC(=O)c2cc(-c3ccc(Br)cc3)on2)sc(C)c1C	89*	87*
CCc1ccccc1Nc1sc(C(=O)c2ccccc2)c(N)c1S(=O)(=O)c1ccccc1	107	104
O=C(CC1(O)C(=O)N(CCc2ccccc2)c2ccc(Br)cc21)c1ccccc1O (stereo not given)	108	105
O=C(CN1C(=O)C2CCCCN2c2ccc(C(=O)N3CCCC3)cc21)NCc1ccc(F)cc1 (stereo not given)	107	108
Cc1ccc(-c2cc(C(F)(F)F)c(C#N)c(SCC(=O)Nc3ccccc3)n2)cc1	111	126
O=C(CSc1nccn1Cc1ccc(Cl)cc1)NC1CCCC1	103	108
CCCn1c(=O)c2sccc2n2c(CCCC(=O)N3CCN(c4ccccc4OC)CC3)nnc12	122	113
Cc1c(NC(=O)Nc2ccc(C#N)cc2)c(=O)n(-c2ccccc2)n1C	104	103

Pulled by compound from above:
SMILES	Polio RdRp inh	Polio RdRp inh intensity
O=C(CC1(O)C(=O)N(CCc2ccccc2)c2ccc(Br)cc21)c1ccccc1O (stereo not given)	108	105
Cc1ccc(S(=O)(=O)N(CC(=O)Nc2ccc3c(c2)OCO3)c2ccc(C)c(Cl)c2)cc1	102	103
CCOc1ccc(NC(=O)c2sc3nc4n(c(=O)c3c2C)CCCC4)cc1	111	111
O=C(CSc1nccn1Cc1ccc(Cl)cc1)NC1CCCC1	103	108
Cc1ccc(-c2cc(C(F)(F)F)c(C#N)c(SCC(=O)Nc3ccccc3)n2)cc1	111	126

Next section:
SMILES	Polio RdRp inh	Polio RdRp inh intensity
COC(=O)c1cc(S(=O)(=O)N2CCN(c3cccc(C)c3)C(C)C2)cn1C (stereo not given)	111	100
Cc1ccc(-n2nc(CO)c(C(=O)NCCC(C)C)n2)cc1C	103	103
CSc1ccc(CCNC(=O)c2ccc(CS(=O)(=O)c3ccc(Br)cc3)o2)cc1	105	108
CCc1ccc(S(=O)(=O)Nc2cccc(-c3ccc(OC)nn3)c2)s1	104	104
Cc1ccccc1NC(=O)c1c(NC(=O)c2ccccc2)sc2c1CCC2	106	108
Cc1nc2c(C(=O)NCc3ccccc3Cl)cnn2c(C)c1Cc1ccccc1	113	111
